DUX4 txn inh – inhibitors of DUX4-driven ZSCAN4 reporter expression, primary screen, 293T cells, Gaussia and Italica luciferase; 293T-iDUX4 ZSCAN4-Gaussia luciferase reporter, 24 h; stronger effect = lower value; activity change, negative = inhibition, % (concentration not given with the values); actives 0.8% (n = 37,000); AID 1224904, 2016;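 active means -10% or lower and over 25 points stronger than a control reporter; inconclusive means -10% or lower with a smaller gap; inactive means above -10%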;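 further: 0% = median of neutral control wells and -100% = median of positive control wells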
DUX4 txn inh difference – further read-out of DUX4 txn inh, marked with its call; Gaussia minus Italica difference, %; measured here: selective DUX4 reporter inhibition;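 worked out from the two reporters; negative = selective loss of the DUX4 reporter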
DUX4 txn inh control – also measured in DUX4 txn inh; calls as there; activity change, negative = inhibition, %; measured here: Italica tet-on control reporter;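 0 = neutral control and -100 = positive control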
The depositor's hits bear a star; ? = inconclusive; nt = not tested or not shown. These rows are one share of the data. The share of hits here may be higher or lower than overall.

| No. | SMILES | DUX4 txn inh | DUX4 txn inh difference | DUX4 txn inh control |
| --- | --- | --- | --- | --- |
| 1 | COc1ccc(-c2ccccc2[C@@H]2[C@H](C#N)N(C(=O)C3CC3)[C@H]2CO)cc1 | 5 | -8 | 13 |
| 2 | CO[C@@H]1CN(C)C(=O)c2cc(NC(=O)NC(C)C)ccc2OC[C@@H](C)N(C(=O)CN(C)C)C[C@H]1C | -4 | -8 | 4.8 |
| 3 | O=C(C[C@H]1CC[C@H]2[C@@H](COC[C@H](O)CN2S(=O)(=O)c2cccc(Cl)c2)O1)Nc1ccc(-c2ccccc2)cc1 | ? | nt | nt |
| 4 | C[C@@H]1CCCCO[C@@H](CN(C)Cc2ccc(C(=O)Nc3ccccc3N)cc2)[C@@H](C)CN([C@H](C)CO)C(=O)c2cc(NC(=O)Nc3cccc4ccccc34)ccc2O1 | 0 | -2 | 2.3 |
| 5 | N#C[C@H]1[C@@H](c2ccc(/C=C/c3ccccc3)cc2)[C@@H](CO)N1C(=O)C1CCOCC1 | 1 | -2 | 3.4 |
| 6 | OC[C@@H]1Nc2ccc(-c3cccc(F)c3)cc2[C@H]2[C@@H]1CCN2Cc1ccc(F)cc1 | ? | nt | nt |
| 7 | CCC(=O)N1CCCCN2[C@@H](CO)[C@@H](c3ccc(C#Cc4ccccc4)cc3)[C@@H]2C1 | ? | nt | nt |
| 8 | C[C@@H]1CN([C@H](C)CO)C(=O)c2c(c3ccccc3n2C)-c2ccccc2CO[C@@H]1CN(C)S(=O)(=O)c1cn(C)cn1 | 17 | 19 | -2.4 |
| 9 | C[C@H](NC(=O)C[C@@H]1C[C@H]2c3cc(NC(=O)CN(C)C)ccc3O[C@H]2[C@H](CO)O1)c1ccccc1 | -2 | -4 | 2.0 |
| 10 | COc1ccc([C@@H]2CC=CC[C@H](C)Oc3ccccc3C(=O)N(C)[C@@H](Cc3ccccc3)C(=O)N2)c(OC)c1 (mixture of isomers) | 0 | -2 | 2.3 |
| 11 | CN1C(=O)c2cc(NC(=O)C3CCOCC3)ccc2OC[C@@H]2O[C@H](CC(=O)NC3CCCC3)CC[C@@H]21 | 3 | 0 | 2.7 |
| 12 | O=S(=O)(c1ccccc1)N1[C@@H]2CNc3ccccc3[C@@H]2[C@@H]1CO | -3 | 1 | -3.9 |
| 13 | CO[C@H]1CN(C)C(=O)c2cc(NC(=O)Cc3ccccc3)ccc2OC[C@H](C)NC[C@H]1C | -2 | 0 | -1.4 |
| 14 | CCC(=O)N1CC[C@@H]2[C@@H](CO)Nc3ccc(C#Cc4cccc(OC)c4)cc3[C@@H]21 | 18 | 15 | 2.9 |
| 15 | CN1C(=O)c2cc(NC(=O)c3cccc(F)c3)ccc2OC[C@@H]2O[C@H](CC(=O)N3CCc4ccccc4C3)CC[C@@H]21 | 1 | -5 | 5.5 |
| 16 | C[C@H](CO)N1C[C@H](C)[C@H](CN(C)C(=O)Nc2ccc(F)cc2)Oc2ccc(NC(=O)c3ccncc3)cc2CC1=O | -6 | -4 | -2.7 |
| 17 | CN(C)C(=O)c1ccc(-c2ccc3c(c2)[C@@H]2[C@@H](CCN2C(=O)c2cnccn2)[C@@H](CO)N3)cc1 | 15 | 5 | 9.6 |
| 18 | C[C@H](CO)N1C[C@H](C)[C@H](CN(C)C(=O)c2ccc3c(c2)OCO3)Oc2cc(C#Cc3ccccc3F)ccc2S1(=O)=O | -6 | -6 | -0.2 |
| 19 | C[C@@H]1CN([C@@H](C)CO)C(=O)c2cc(NC(=O)Cc3ccccc3)ccc2O[C@H]1CN(C)S(C)(=O)=O | 3 | 5 | -1.2 |
| 20 | CN(C)c1ccc2c(c1)[C@H]1C[C@H](CC(=O)O)O[C@@H](CO)[C@H]1O2 | 3 | -3 | 5.7 |
| 21 | O=C(Nc1ccccc1F)N1CC(=O)N2[C@@H](CO)[C@@H](c3ccc(-c4cccnc4)cc3)[C@@H]2C1 | ? | nt | nt |
| 22 | CCC(=O)N(CC)C[C@H]1[C@H](c2ccccc2)[C@@H](CO)N1C(=O)C1CCC1 | 4 | 3 | 0.7 |
| 23 | O=C(C[C@@H]1CC[C@H](NC(=O)C2CCOCC2)[C@H](CO)O1)NCC1CCCCC1 | 2 | 2 | -0.4 |
| 24 | N#C[C@@H]1[C@@H](c2ccccc2-c2ccc(F)cc2)[C@H](CO)N1c1ncc(-c2ccccc2)s1 | 0 | 9 | -9.3 |
| 25 | CCCC#Cc1ccc([C@H]2[C@H]3CN(C(=O)c4ccc5c(c4)OCO5)CCCCN3[C@H]2CO)cc1 | ? | nt | nt |
| 26 | C[C@H](CO)N1C[C@H](C)[C@H](CN(C)C(=O)c2ccncc2)OCCCC[C@H](C)Oc2ccc(NC(=O)CCCCCC(=O)Nc3ccccc3N)cc2C1=O | -2 | -1 | -1.1 |
| 27 | Cc1cccc(S(=O)(=O)N2CC[C@@H]3[C@H]2c2cc(C#Cc4ccc(F)cc4)ccc2N[C@@H]3CO)c1 | -5 | 1 | -5.2 |
| 28 | COc1ccc2c3c([nH]c2c1)[C@H](CO)NCC31CCN(C(=O)Cc2ccncc2)CC1 | 1 | 3 | -2.0 |
| 29 | CO[C@@H]1CC[C@H]2CCOc3c(C#N)cccc3C(=O)N(C)[C@@H](C)C(=O)N(C)C[C@H]1O2 | 0 | 0 | 0.5 |
| 30 | Cc1ccc(NC(=O)C[C@H]2CC[C@H]3[C@@H](COc4ccc(NC(=O)c5ccc(F)cc5)cc4C(=O)N3C)O2)cc1 | 2 | -3 | 5.7 |
| 31 | COC(=O)C[C@H]1CC[C@H]2[C@H](COc3ccc(NC(=O)NC(C)C)cc3C(=O)N2C)O1 | 8 | 7 | 1.1 |
| 32 | CCCNC(=O)N1[C@H](CO)[C@@H](c2ccc(C3=CCCC3)cc2)[C@@H]1CNC(=O)CC | 1 | 4 | -2.4 |
| 33 | COc1cccc(-c2ccc([C@@H]3[C@@H](CO)N4CCCCN(CC5CC5)C[C@@H]34)cc2)c1 | -7 | -3 | -3.9 |
| 34 | CCCC#Cc1ccc([C@H]2[C@@H](CO)N3CCCCN(Cc4ccncc4)C[C@@H]23)cc1 | 6 | 6 | 0.0 |
| 35 | CCCNC(=O)N1[C@H](CO)[C@H](c2ccc(-c3ccc(C#N)cc3)cc2)[C@@H]1CNC | -7 | -2 | -5.3 |
| 36 | CC1C=NC(S(=O)(=O)N2CC[C@@H]3[C@@H](CO)N(C)c4ccc(-c5ccc(F)cc5)cc4[C@@H]32)=N1 (stereo not given in full) | 2 | 0 | 1.4 |
| 37 | C/C=C/c1cccc(-c2nc(C(=O)N3CCCCC3)cc3c2[C@H](CCO)N(C(=O)NC(C)C)C3)c1 | 0 | 0 | 0.6 |
| 38 | COc1ccccc1CNC(=O)C[C@@H]1CC[C@H]2[C@@H](COC[C@H](O)CN2Cc2cccc(-c3ccncc3)c2)O1 | -7 | 3 | -9.9 |
| 39 | C[C@H]1CCCCO[C@H](CN(C)C(=O)Nc2ccc(C(F)(F)F)cc2)[C@@H](C)CN([C@@H](C)CO)C(=O)c2cc(NS(=O)(=O)c3cn(C)cn3)ccc2O1 | -5 | -4 | -0.7 |
| 40 | COc1ccccc1C(=O)N1C[C@@H]2[C@H](c3ccccc31)[C@@H](CO)N2CC1CCOCC1 | 1 | 0 | 1.0 |
| 41 | CS(=O)(=O)N1CC2(C1)[C@@H](c1ccccc1)[C@H](CO)N2C(=O)C1CCC1 | 0 | 1 | -1.0 |
| 42 | O=C(C[C@H]1CC[C@H]2[C@@H](COC[C@@H](O)CN2S(=O)(=O)c2cccc(F)c2)O1)Nc1ccccc1 | 9 | 0 | 8.7 |
| 43 | CO[C@@H](CN(C)S(=O)(=O)c1cn(C)cn1)[C@H](C)CN(C(=O)Nc1ccc(F)cc1)[C@H](C)CO | 2 | 1 | 0.6 |
| 44 | COc1ccc(CNC(=O)C[C@@H]2C[C@H]3c4cc(NC(=O)NC5CCCC5)ccc4O[C@H]3[C@@H](CO)O2)cc1 | 6 | -1 | 7.8 |
| 45 | COc1cccc(S(=O)(=O)N(C)C[C@H]2OCc3ccccc3-c3c(n(C)c4ccccc34)C(=O)N([C@@H](C)CO)C[C@@H]2C)c1 | ? | nt | nt |
| 46 | C[C@H](NC(=O)C[C@H]1C[C@@H]2c3cc(NC(=O)Cc4ccncc4)ccc3O[C@@H]2[C@H](CO)O1)c1ccccc1 | 5 | 4 | 0.9 |

Molecules shown so far with a halogen, in the order listed:
| No. | SMILES | DUX4 txn inh | DUX4 txn inh difference | DUX4 txn inh control |
| --- | --- | --- | --- | --- |
| 3 | O=C(C[C@H]1CC[C@H]2[C@@H](COC[C@H](O)CN2S(=O)(=O)c2cccc(Cl)c2)O1)Nc1ccc(-c2ccccc2)cc1 | ? | nt | nt |
| 6 | OC[C@@H]1Nc2ccc(-c3cccc(F)c3)cc2[C@H]2[C@@H]1CCN2Cc1ccc(F)cc1 | ? | nt | nt |
| 15 | CN1C(=O)c2cc(NC(=O)c3cccc(F)c3)ccc2OC[C@@H]2O[C@H](CC(=O)N3CCc4ccccc4C3)CC[C@@H]21 | 1 | -5 | 5.5 |
| 16 | C[C@H](CO)N1C[C@H](C)[C@H](CN(C)C(=O)Nc2ccc(F)cc2)Oc2ccc(NC(=O)c3ccncc3)cc2CC1=O | -6 | -4 | -2.7 |
| 18 | C[C@H](CO)N1C[C@H](C)[C@H](CN(C)C(=O)c2ccc3c(c2)OCO3)Oc2cc(C#Cc3ccccc3F)ccc2S1(=O)=O | -6 | -6 | -0.2 |
| 21 | O=C(Nc1ccccc1F)N1CC(=O)N2[C@@H](CO)[C@@H](c3ccc(-c4cccnc4)cc3)[C@@H]2C1 | ? | nt | nt |
| 24 | N#C[C@@H]1[C@@H](c2ccccc2-c2ccc(F)cc2)[C@H](CO)N1c1ncc(-c2ccccc2)s1 | 0 | 9 | -9.3 |
| 27 | Cc1cccc(S(=O)(=O)N2CC[C@@H]3[C@H]2c2cc(C#Cc4ccc(F)cc4)ccc2N[C@@H]3CO)c1 | -5 | 1 | -5.2 |
| 30 | Cc1ccc(NC(=O)C[C@H]2CC[C@H]3[C@@H](COc4ccc(NC(=O)c5ccc(F)cc5)cc4C(=O)N3C)O2)cc1 | 2 | -3 | 5.7 |
| 36 | CC1C=NC(S(=O)(=O)N2CC[C@@H]3[C@@H](CO)N(C)c4ccc(-c5ccc(F)cc5)cc4[C@@H]32)=N1 (stereo not given in full) | 2 | 0 | 1.4 |
| 39 | C[C@H]1CCCCO[C@H](CN(C)C(=O)Nc2ccc(C(F)(F)F)cc2)[C@@H](C)CN([C@@H](C)CO)C(=O)c2cc(NS(=O)(=O)c3cn(C)cn3)ccc2O1 | -5 | -4 | -0.7 |
| 42 | O=C(C[C@H]1CC[C@H]2[C@@H](COC[C@@H](O)CN2S(=O)(=O)c2cccc(F)c2)O1)Nc1ccccc1 | 9 | 0 | 8.7 |
| 43 | CO[C@@H](CN(C)S(=O)(=O)c1cn(C)cn1)[C@H](C)CN(C(=O)Nc1ccc(F)cc1)[C@H](C)CO | 2 | 1 | 0.6 |

Assay outcomes from PubChem BioAssay.
